# FEN1 inhibitor – inhibitors of human flap endonuclease 1 | P39748 | Recombinant FEN1 flap cleavage, fluorescence, 15 min | Potency, µM (highest dose often 114 µM), for the others: at the highest dose activity change, negative = inhibition, usual class: inhibitors | actives 0.35% (n = 390,000); further: nearly all actives have a fitted effect of over 65% in size
# Target sequence (P39748 whole entry, looked up): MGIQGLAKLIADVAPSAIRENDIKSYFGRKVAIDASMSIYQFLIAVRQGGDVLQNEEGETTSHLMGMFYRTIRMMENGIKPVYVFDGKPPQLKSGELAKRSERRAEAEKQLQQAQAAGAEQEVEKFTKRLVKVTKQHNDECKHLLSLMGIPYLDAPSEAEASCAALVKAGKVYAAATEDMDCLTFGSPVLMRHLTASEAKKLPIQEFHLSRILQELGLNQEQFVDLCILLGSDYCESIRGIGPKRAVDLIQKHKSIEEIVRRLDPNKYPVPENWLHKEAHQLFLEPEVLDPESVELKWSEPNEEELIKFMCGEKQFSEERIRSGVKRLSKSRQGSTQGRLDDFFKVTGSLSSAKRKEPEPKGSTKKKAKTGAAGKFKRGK
#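 Quantitative HTS format: each compound was titrated, incubated with 10 nM nuclease for 15 min at room temperature, then challenged with flap substrate at 50 nM final. Signal change over 15 min gave concentration–effect curves.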
# N370S GC – N370S glucocerebrosidase modulation, Gaucher chaperone candidate; P04062; N370S GC spleen homogenate, 4MU-glucoside fluorescence; Potency, µM (titrated, usually from 59.4 µM), for the others: top-dose activity change, negative = inhibition, usual class: inhibitors; actives 0.092% (n = 330,000);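 further: 0% = full enzyme activity and -100% = no enzyme basal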
# Starred values were filed as active, the others as inactive; ? = inconclusive; / = not tested or not shown; & = joins results of further samples; [ ] = another dose, or the depositor's remark. The call rests on the fitted dose curve; in most records, active means well fitted curve in the direction sought with a large enough effect; inconclusive means small, poorly fitted or top-dose-only effect, or another doubt; inactive means no such curve, though single readings can be large; an effect the other way counts as inactive or inconclusive. Unless noted, on the % scale 0 is the no-effect control and ±100 the full control effect; potency means the concentration at half of the fitted maximal effect. This is a subset; most or all hits stand in other tables.
# The first 4 compounds, to show the layout:
SMILES,FEN1 inhibitor,N370S GC
CN(CC(=O)Nc1cccc(F)c1)C(=O)CSc1ccccc1F,-10%,-1%
CC(C)NC(=O)Nc1cccs1,6%,0%
O=[N+]([O-])c1ccc(N2CCCCC2)c(-c2nn[nH]n2)c1,9%,-7%
COc1ccc(/C=N/NC(=O)Cc2csc(Nc3cccc(C(F)(F)F)c3)n2)cc1C,-23%,-14%

# Results (from the top)
SMILES,FEN1 inhibitor,N370S GC
CN(CC(=O)Nc1cccc(F)c1)C(=O)CSc1ccccc1F,-10%,-1%
CC(C)NC(=O)Nc1cccs1,6%,0%
O=[N+]([O-])c1ccc(N2CCCCC2)c(-c2nn[nH]n2)c1,9%,-7%
COc1ccc(/C=N/NC(=O)Cc2csc(Nc3cccc(C(F)(F)F)c3)n2)cc1C,-23%,-14%
Cc1ccc(S(=O)(=O)N2CCOCC2)cc1NC(=O)c1ccc(F)cc1F,-3%,/
COc1ccc(CNC(=O)COC(=O)CCc2c[nH]c3ccccc23)cc1,15%,3%
O=C(CNC(=O)c1cccc(F)c1)OCC(=O)N1CCCc2ccccc21,2%,-2%
Cn1cnc(S(=O)(=O)NCc2ccc(Br)cc2)c1,3%,3%
O=C(NC(=S)Nc1ccccn1)c1cncc(Br)c1,18%,-3%
Cc1ccc(-c2nn(-c3ccccc3)cc2C2CC(c3cccs3)=NN2C(=O)CCC(=O)O)cc1 (stereo not given),-7%,4%
CC(C)(C)OC(=O)C[C@@H]1C/C=C\C[C@@H](CC(=O)N[C@H](CO)Cc2ccccc2)C(=O)NCCOC1=O,18%,/
CCOc1ccc(NC(=O)C2CCCN(c3c(CC)c(C)nc4ncnn34)C2)cc1 (stereo not given),1%,-5%
CCC/C(O)=C1\C(=O)CC(c2ccccc2)CC1=NC(C)C(=O)O (stereo not given),3%,1%
O=C(NCc1ccco1)c1cccn2c(=O)c3cc4ccccc4cc3nc12,/,9%
COc1ccc(OC)c(-c2noc(N3CCN(c4cc(C)ccc4C)CC3)n2)c1,-21%,/

# The closing two compounds of the section above lead into the next:
SMILES,FEN1 inhibitor,N370S GC
O=C(NCc1ccco1)c1cccn2c(=O)c3cc4ccccc4cc3nc12,/,9%
COc1ccc(OC)c(-c2noc(N3CCN(c4cc(C)ccc4C)CC3)n2)c1,-21%,/
Cc1ccc(S(=O)(=O)N(CC(=O)N/N=C/c2cccc(Cl)c2)c2cccc3cccnc23)cc1,4%,-16%
COc1ccc(OCC#CCN2CC(C)OC(C)C2)cc1 (stereo not given),-12%,-16%
OCC1(CC2CCCCO2)CCN(Cc2nc3ccccc3[nH]2)CC1 (stereo not given),1%,-1%
CCOC(=O)c1cc(-c2ccccc2)n(CCC(=O)Nc2ccccc2CC)c1C,2%,/
O=c1oc2ccccc2c2c1SC(C(F)(F)F)C2 (stereo not given),-2%,22%
CN(C)Cc1ccccc1-c1cc(N(C)C)ncn1,/,0%
COc1cc(C/C=C/c2ccccc2)c(OC)cc1O,/,-1%
Cc1ccc(C(=O)NCC(c2ccc3c(c2)OCO3)N2CCOCC2)cc1 (stereo not given),-12%,/
O=C(CCCc1nc(-c2ccc(Cl)cc2)no1)NC1CCCCC1,2%,-17%
CCN=C1SC(C(=O)Nc2cc(Cl)cc(Cl)c2)CC(=O)N1CC (stereo not given),5%,15%
CC(=O)N1CCN(c2ccc(NCc3ccccc3)cc2)CC1,14%,-21%
CCOC(=O)C1=C(COC(=O)c2ccc(Br)o2)NC(=O)NC1C (stereo not given),-2%,-3%
Cc1scc(C(=O)NNC(=S)NCc2ccccc2)c1C,-3%,-14%
O=C(NCc1ccccn1)c1cc2c(ccc3ccccc32)oc1=O,17%,28%
COc1ccc(C2/C=C\CN(C(=O)CC(C)(C)C)C(C)C(=O)N2Cc2ccc(F)cc2)cc1 (stereo not given),2%,-3%
COc1ccccc1N/C(N)=N/c1nc(C(F)(F)F)cc(=O)[nH]1,11%,?
CCCC(=O)N1CCN(c2ccc(NC(=O)c3ccc([N+](=O)[O-])o3)cc2)CC1,-4%,-22%
O=C(O)/C(=C\c1ccc(Br)cc1)c1ccc(S(=O)(=O)N2CCCCC2)s1,-9%,-10%
COc1ccccc1N1CCN(CCCC(=O)c2ccc(F)cc2)CC1,2%,-7%
CCn1nc(NC(=O)c2ccccc2)c2cc3cccc(C)c3nc21,-2%,13%
OC1CCCN(Cc2cccc3ccccc23)C1 (stereo not given),1%,-2%
COCCN(CC(=O)NC1CCCCC1)C(=O)c1csnn1,6%,5%
CCn1cc(C(=O)N2CCN(c3ccccn3)CC2)c(=O)c2cc(S(=O)(=O)N(C)C3CCCCC3)ccc21,-16%,-8%
Cc1ccccc1-n1c(=O)cc(N2CCc3ccccc32)[nH]c1=O,?,-4%
CCN(CC)CCNC(=O)c1ccc(NC(=O)Cc2ccsc2)cc1,-1%,-22%
COc1ccc(NC(=O)CSc2nnc(-c3ccncc3)n2CC2CCCO2)c(OC)c1 (stereo not given),-18%,1%
COc1ccccc1CN(Cc1cc2cc(C)ccc2[nH]c1=O)Cc1nnnn1Cc1ccco1,-11%,11%
COc1cc(-c2[nH]nc3c2C(c2ccoc2)C(C#N)=C(N)O3)cc(OC)c1OC (stereo not given),-18%,-5%
CC(C)NC(=O)NC(=O)COC(=O)c1ccccc1Oc1ccccc1,-3%,-26%
CCOc1ccc(C(=O)N2CCC(c3nc4ccccc4o3)CC2)cc1,0%,/
CCC(=O)Nc1ccc(NC(=O)c2cccc3c(Br)cccc23)cc1,18%,-25%
Cc1noc(C)c1COc1cccc(C(=O)Nc2cccnc2)c1,6%,-14%
CSc1ccccc1NC(=O)c1ccc(N2CC3CC(C2)c2cccc(=O)n2C3)c(NC(=O)c2cccnc2)c1 (stereo not given),14%,-6%
CCN1CCCC1CNC(=O)CS(=O)(=O)Cc1nc(-c2ccccc2C)oc1C (stereo not given),22%,-2%
Cc1nc(NC(=O)C(Cl)Cl)sc1C(=O)N(C)C,-13%,16%
CCCOc1ccc(OC(=O)c2ccc(Br)o2)cc1,-9%,7%
CCOC(=O)[C@]1(C(NC(=O)OC)c2ccco2)CCCC1=O (stereo not given in full),/,-7%[12.8 µM]
COc1ccc(N2C(=O)CC(N(CCc3ccc(OC)c(OC)c3)C(=S)Nc3ccccc3)C2=O)cc1 (stereo not given),-23%,6%
CCOc1ccc(NC(=O)c2cc3cc4ccc(OC)cc4nc3o2)cc1,-4%,3%
O=C(Nc1ccc(N2CCN(C(=O)c3ccccc3)CC2)c(Cl)c1)c1cccnc1,0%,-11%
CCC(C)Cn1c(C(C)O)nc2ccccc21 (stereo not given),11%,-2%
CC(C)C[C@H]1C(=O)N2CCC[C@H]2[C@]2(O)O[C@](NC(=O)C3C=C4c5cccc6[nH]c(Br)c(c56)C[C@H]4N(C)C3)(C(C)C)C(=O)N12 (stereo not given in full),-11%,/
Cc1ccc(N2CC(c3nnc(Cc4ccccc4Cl)o3)CC2=O)cc1 (stereo not given),-12%,/
COc1ccc(CC2(CO)CCN(C(=O)NCc3ccccc3)CC2)cc1,4%,-14%
COc1ccc2nc(CC(C)(C)CC(=O)O)c[n+]([O-])c2c1,-6%,20%
O=C(Nc1nc2c(s1)CCCCCC2)Nc1ccc(F)cc1F,-3%,/
COc1ccc(N2CCN(C(=O)c3ccccc3N(C)S(=O)(=O)c3ccc(C)cc3)CC2)cc1,3%,4%
Cc1ccc(C)n1CCN1CCN(C(=O)c2ccc(Cl)cc2)CC1,-1%,0%
Cc1c(C)n(CC(O)CNc2ccccc2)c2ccccc12 (stereo not given),-27%,-9%
COc1ccc(Nc2nc(Cl)nc(Nc3ccc(OC)cc3OC)n2)c(OC)c1,-4%,0%
CC(C)Nc1nc(Oc2ccc(=O)n(-c3ccccc3)n2)nc(N(C)C)n1,10%,-7%
S=C(NCc1cccnc1)Nc1cc(Cl)cc(Cl)c1,10%,-1%
CCC(C)(C)NC(=O)c1ccc(Sc2nncn2C)c([N+](=O)[O-])c1,4%,9%
COc1cc(C2CC(=O)Nc3ccccc3S2)cc(OC)c1OC (stereo not given),-5%,-15%
Cc1ccccc1N1CCN(CC(=O)Nc2ccccc2C(=O)NC2CC2)CC1,-15%,/
COc1ccc([N+](=O)[O-])cc1NCc1cccc([N+](=O)[O-])c1,-11%,17%
O=C(COC(=O)c1cnccn1)NCCc1ccc(Cl)cc1,14%,1%
O=C(CC1C(=O)NCCN1CC1CCCCC1)NCc1ccc(Cl)cc1 (stereo not given),-2%,-4%
CC(=O)Nc1ccc(NC(=O)C2CCCN2C(=O)NC2CCCCC2)cc1 (stereo not given),-1%,0%
O=C(CSc1ccccc1C(=O)O)NCc1ccco1,-3%,0%

# Molecules listed so far with two or more sulfur atoms (two):
SMILES,FEN1 inhibitor,N370S GC
Cc1scc(C(=O)NNC(=S)NCc2ccccc2)c1C,-3%,-14%
O=C(O)/C(=C\c1ccc(Br)cc1)c1ccc(S(=O)(=O)N2CCCCC2)s1,-9%,-10%

# (more compounds)
SMILES,FEN1 inhibitor,N370S GC
CN(CC(=O)Nc1ccc(N2CCOCC2)cc1)C(=O)c1cc(S(=O)(=O)N(C)C)ccc1Cl,2%,-17%
COC(=O)N/N=C/c1cc(C)n(-c2ccccc2)c1C,17%,-1%
COc1ccc(Br)c(/C=N/NC(=O)COc2ccc(-c3ccccc3)cc2)c1,-8%,3%
Cc1cc(C)c2c(=O)cc(C(F)(F)F)oc2n1,-15%,-7%
Cc1oc(-c2ccccc2)nc1CNC(=O)NC1CCCCC1,-3%,/
Cc1cccc(NC(=O)C(=O)NCC(c2ccc3c(c2)OCO3)N2CCOCC2)c1C (stereo not given),17%,/
O=C(NC(=S)NCc1ccco1)c1ccccc1,4%,-6%
CC(C)c1ccc(CNCCCSc2ncccn2)cc1,0%,-13%
O=C(/C=C/c1ccc(S(=O)(=O)N2CCOCC2)cc1)NCc1ccccc1,-3%,12%
O=C(OCCN1C(=O)c2ccccc2C1=O)c1cccc(OC(F)F)c1,-21%,8%
Cc1ccc(NC(=O)c2cccc(Oc3ccc([N+](=O)[O-])cc3)c2)c(C(=O)O)c1,10%,-4%
O=C(CSc1nnc(-c2ccc3c(c2)OCO3)n1-c1ccccc1)c1ccc(Cl)cc1,-5%,-1%
Cn1c(=O)c2c(Nc3ccc(F)cc3)cc(=O)n(-c3ccccc3)c2n(C)c1=O,3%,1%
Cc1ccc(SCCC(=O)NC(C)(C)C)cc1,1%,6%
COc1ccc(Cl)cc1NC(=O)C/C(C)=N/NC(=O)CC#N,7%,-15%
CCC(=O)Nc1ccc(C(=O)NNC(=O)c2ccc([N+](=O)[O-])cc2)cc1,-2%,-4%
O=C(COc1ccc(Cl)cc1)Nc1ccccc1OCc1cc(=O)n2ccccc2n1,17%,/
CCC(C)/C(C)=N/NC(=O)c1ccc(COc2ccc(Cl)c(C)c2)cc1 (stereo not given),-7%,-2%
COc1ccc(OC)c(C2C3CN(C(C)C)CC=C3C(C#N)=C(N)C2(C#N)C#N)c1 (stereo not given),-17%,-5%
O=C(COc1cccc2cccnc12)Nc1ccccc1N1CCOCC1,4%,8%
CC#CCCC(=O)N1C=Cc2ccccc2C1C#N (stereo not given),5%,5%
CCCCc1ccc(NC(=S)Nc2ccc(Cl)c(S(=O)(=O)N(C)C)c2)cc1,-10%,6%
CC(=O)c1ccc(S(=O)(=O)N2CCN(C(=O)c3ccc(COc4ccccc4)o3)CC2)cc1,-12%,-4%
CC(C)c1nnc(NC(=O)CCCCCN2C(=O)C3C4C=CC(C4)C3C2=O)s1 (stereo not given),2%,6%
N#Cc1c(NCCN)nc(NCc2ccccc2)c2c1CCN(Cc1ccccc1)C2,-9%,-5%
CCc1sc(N(C(=O)Cc2ccccc2)c2cccc(F)c2)nc1-c1ccc(C)cc1,-8%,2%
CC(Cc1ccccc1)C(=O)N1CCN(C)CC1 (stereo not given),-5%,15%&9%
Cc1ccc(S(=O)(=O)NN=C2CCN(Cc3ccccc3)CC2)cc1,13%,8%
CCCc1cc(C(F)(F)F)c(C#N)c(=O)[nH]1,0%,?
O=Cc1ccc(-c2nc3ccccc3s2)o1,-18%,1%
CC(=O)N1CCN(c2nnnn2-c2ccccc2)CC1,-5%,-10%
CCCCc1ccc(N=N/C(C(=O)Nc2ccccc2OC)=C(/C)O)cc1,-4%,2%
Cc1nn2c3c(cnc2c1-c1ccc(Cl)cc1)C(=O)CC(c1ccc(C(C)C)cc1)C3 (stereo not given),-4%,/
Cc1cccc(-n2c(=O)c3ccccc3n3c(=S)[nH]nc23)c1C,-13%,0%
Cc1cc(C)c(C#N)c(N2CCN(c3ccc(F)cc3)CC2)n1,?,-1%
CC(C)CN1C(=O)/C(=C(/C#N)C(=O)NC2CCCCC2)c2ccccc21,-3%,13%
Cc1ccc(S(=O)(=O)N2CCN(C(=O)c3ccc(-n4cncn4)c([N+](=O)[O-])c3)CC2)cc1C,-1%,0%

# A draw from above in order of count of non-hydrogen atoms, ascending:
SMILES,FEN1 inhibitor,N370S GC
Cc1cccc(-n2c(=O)c3ccccc3n3c(=S)[nH]nc23)c1C,-13%,0%
Cc1nn2c3c(cnc2c1-c1ccc(Cl)cc1)C(=O)CC(c1ccc(C(C)C)cc1)C3 (stereo not given),-4%,/
Cc1ccc(S(=O)(=O)N2CCN(C(=O)c3ccc(-n4cncn4)c([N+](=O)[O-])c3)CC2)cc1C,-1%,0%
